KCNQ2 pot: potentiators of rat KCNQ2 potassium channel; CHO-K1 KCNQ2, FluxOR thallium flux fluorescence; stronger effect = higher value; AID 2239, 2010; B-score at 10 µM; 310,000 compounds, 0.54% hits;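 active means fluorescence ratio B-score at least 3 SD of library B-scores, with initial fluorescence B-score within 3 SD, cut at about 5.3 in these data; same plate scores as AID 2156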;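 further: B-score of peak minus minimum over baseline fluorescence ratio after K+ and Tl+ stimulus; positive B-score means potentiation of KCNQ2 with more thallium influx and brighter signal; only the inactives scoring about 0 or higher are listed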
Target sequence (O88943 whole entry, looked up): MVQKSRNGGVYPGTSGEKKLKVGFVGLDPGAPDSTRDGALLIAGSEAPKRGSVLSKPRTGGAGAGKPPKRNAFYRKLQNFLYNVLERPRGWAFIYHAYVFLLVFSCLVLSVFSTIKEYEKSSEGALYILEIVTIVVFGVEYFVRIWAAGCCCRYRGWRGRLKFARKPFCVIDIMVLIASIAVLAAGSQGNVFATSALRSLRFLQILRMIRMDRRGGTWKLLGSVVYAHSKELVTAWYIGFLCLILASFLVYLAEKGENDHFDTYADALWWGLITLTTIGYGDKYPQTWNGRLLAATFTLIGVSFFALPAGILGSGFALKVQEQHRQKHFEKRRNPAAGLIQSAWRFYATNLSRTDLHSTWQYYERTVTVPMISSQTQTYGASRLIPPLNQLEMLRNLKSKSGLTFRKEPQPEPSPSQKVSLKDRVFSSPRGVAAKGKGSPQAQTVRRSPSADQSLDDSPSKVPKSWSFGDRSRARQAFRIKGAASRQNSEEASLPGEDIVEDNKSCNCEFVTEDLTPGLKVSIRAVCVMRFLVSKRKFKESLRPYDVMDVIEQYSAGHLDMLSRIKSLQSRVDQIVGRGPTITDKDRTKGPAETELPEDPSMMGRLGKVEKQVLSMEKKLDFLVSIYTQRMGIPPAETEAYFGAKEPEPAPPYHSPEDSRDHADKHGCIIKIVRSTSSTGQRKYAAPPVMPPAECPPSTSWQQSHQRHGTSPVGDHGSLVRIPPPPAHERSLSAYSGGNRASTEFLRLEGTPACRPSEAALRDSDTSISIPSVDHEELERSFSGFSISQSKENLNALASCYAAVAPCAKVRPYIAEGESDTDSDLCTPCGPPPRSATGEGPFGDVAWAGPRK
KCNQ2 pot baseline: second read-out of KCNQ2 pot, no call of its own (marks repeat the call); B-score; compound at 10 µM; measured here: initial fluorescence intensity artifact check;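 brightness before thallium and not channel activity; 0 = typical well and far values either way flag optical interference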
Numbers without * were called inactive. Not all compounds are listed. The share of hits here may be higher or lower than overall.

molecule,KCNQ2 pot,KCNQ2 pot baseline
CCCCC(c1nnnn1CS(=O)(=O)c1ccc(C)cc1)N1CCN(C)CC1 (stereo not given),0.25,0.97
Cc1cc(NC(=O)Nc2ccc(Cl)cc2)n(-c2ccccc2)n1,0.99,0.87
Cc1cc(=O)oc2cc(OC(C)C(=O)NC3CCN(Cc4ccccc4)CC3)ccc12 (stereo not given),1.3,-0.33
CC(C)CNC(=O)CN(c1cccc(Cl)c1)S(C)(=O)=O,0.03,-1.4
CCC(Oc1ccccc1)C(=O)OCC(=O)N(CC)c1c(N)n(Cc2ccccc2)c(=O)[nH]c1=O (stereo not given),1.3,-0.76
CC1=NN(c2ccccc2)C(=O)/C1=C\c1sccc1C,1.7,1.1
N/C(=N\OC(=O)CCC1CCCC1)c1ccccn1,0.8,-0.06
Cc1ccc(C(=O)n2nc(-c3ccco3)nc2N)cc1,0.44,1.2
Cc1oc(-c2ccccc2)cc1C(N)=O,0.57,0.21
O=C(Nc1nccs1)c1ccc(-c2ccc(F)cc2)o1,0.47,1.2
CCc1ccc(NC(=O)Cc2ccc(-n3cccc3)cc2)cc1,0.49,1.4
CC(C)C(=O)Nc1ccc2nn(-c3ccccc3)nc2c1,0.63,-0.23
COc1cccc(CCc2nnc(CCC(=O)NCCC3CCCCO3)o2)c1 (stereo not given),0.11,1.3
Cc1ccc(N/C(N)=N/c2nc(CSc3ccccn3)cc(=O)[nH]2)c(C)c1,0.43,-1.3
COc1cc(NC(=O)CSc2ncnc3scc(-c4ccccc4)c23)c(C(=O)O)cc1OC,0.29,-0.95
CCC(=O)Nc1ccc(N2CCN(Cc3ccccc3)CC2)cc1,1.2,-0.71
NNC(=O)c1cc(C23CC4CC(CC(C4)C2)C3)[nH]n1,0.42,0.04
COc1cccc(/C=N/NC(=O)CNC(=O)c2cccs2)c1O,0.35,1.6
COc1ccc(-c2nn(-c3ccccc3)cc2C(=O)Nc2nc(CC(C)=O)ns2)cc1,0.86,-0.64
CCOc1ccc(NC(=O)CN(C)C(=O)CSC(C)C(=O)Nc2cc(C)on2)cc1OCC (stereo not given),0.38,0.53

(cont.)
molecule,KCNQ2 pot,KCNQ2 pot baseline
O=C(Nc1nccs1)c1cccc(N2C(=O)C3C4C=CC(C4)C3C2=O)c1 (stereo not given),0.94,-1.3
O=C1CCCc2cc(S(=O)(=O)N3CCC(C(=O)NCc4ccccc4)CC3)ccc2N1,1.4,-1.4
Cc1ccc(-n2ncc(C#N)c2N)cc1,0.34,-0.14
COc1ccc(N(CC(=O)NCc2cccc(OC)c2)S(=O)(=O)c2c(C)noc2C)cc1,0.43,0.07
COC(=O)c1cnc(Nc2cc(C)ccc2OC)c2ccccc12,1.6,-2
CCCCc1[nH]c(=O)c(C#N)c2c1CSC(C)(C)C2,0.29,1.7
Cc1nn(-c2ccccc2)c(Cl)c1/C=N/NC(=O)c1ccnn1C,0.68,1
COc1ccc(CNC(=O)CN(C2CCCCC2)S(C)(=O)=O)cc1,0.3,-0.43
Cc1ccc(CNC(=O)C2CCN(S(=O)(=O)c3cccs3)CC2)cc1,0.12,-0.58
CCOC(=O)Nc1cccc(Cl)c1C,2.2,-1.8
Cc1c(C(=O)NCc2ccco2)cccc1[N+](=O)[O-],1.6,-0.03
CC(=O)N1CCOc2ccc(S(=O)(=O)N3CCC(C(=O)Nc4cc(C)ccc4C)CC3)cc21,2.3,0.24
COc1cc(OC)cc(-c2nnc(NC(=O)Cc3ccc(F)cc3)o2)c1,0.33,-0.35
COCC(=O)N(C)C1(c2nnnn2CCOC(=O)Nc2ccc(Cl)cc2)CCCC1,2,-0.35
COc1ccc(C2(CNC(=O)c3ccc(OC)c([N+](=O)[O-])c3)CCOCC2)cc1OC,0.28,-0.73
COc1cc2c(cc1OC)C(c1ccccc1)N(C(=O)c1cccc(S(C)(=O)=O)c1)CC2 (stereo not given),0.13,0.03
COc1ccc(CNC(=O)COC(=O)C2CC2C)cc1OC (stereo not given),0.34,1.2
CC(=O)c1cccc(NS(=O)(=O)c2cc(-c3cnc(C4CC4)o3)ccc2C)c1,0.1,0.51
CC1CC(C)CN(c2nc3c(c(=O)n(C)c(=O)n3C)n2CCSc2ncccn2)C1 (stereo not given),0.3,0.98
O=C(Nc1nnc(SCC(=O)N2CCOCC2)s1)C1CC(=O)N(c2ccccc2)C1 (stereo not given),0.37,-0.46

Complete entries from above. Order of values: KCNQ2 pot, KCNQ2 pot baseline
`Cc1ccc(-n2ncc(C#N)c2N)cc1` is listed with 0.34, -0.14
`CC(=O)c1cccc(NS(=O)(=O)c2cc(-c3cnc(C4CC4)o3)ccc2C)c1` is listed with 0.1, 0.51
`COc1ccc(CNC(=O)COC(=O)C2CC2C)cc1OC` (stereo not given) is listed with 0.34, 1.2
`Cc1nn(-c2ccccc2)c(Cl)c1/C=N/NC(=O)c1ccnn1C` is listed with 0.68, 1
`O=C(Nc1nnc(SCC(=O)N2CCOCC2)s1)C1CC(=O)N(c2ccccc2)C1` (stereo not given) is listed with 0.37, -0.46

(listing goes on)
molecule,KCNQ2 pot,KCNQ2 pot baseline
Cc1ccc(C)c(NC(=O)CCN2CC(C)CC(C)C2)c1 (stereo not given),0.55,-1.1
O=C(CSc1nnc(-c2ccc(F)cc2)o1)c1ccc2c(c1)OCCO2,0.22,-0.79
CCOC(=O)Nc1sc2c(c1C(=O)OCC)CCC2,0.27,-3
CCc1ccccc1NC(=O)CC(O)(C(=O)OC)C(F)(F)F (stereo not given),1.7,-0.29
N#Cc1nc(Cc2ccccc2)oc1NCCN1CCOCC1,0.04,-0.16
CCOC(=O)c1ccc(NC(=O)CSc2nnc(Cn3c(=O)sc4ccccc43)n2C)cc1,0.16,-2.4
COc1ccccc1-c1c(C)nn2c(N3CCN(Cc4ccccc4)CC3)cc(C)nc12,0.08,0.48
O=C(Nc1ccc(N2CCOCC2)cc1)c1cc2c(s1)CCCC2,1.1,-0.76
NS(=O)(=O)c1ccc(CCNC(=O)CSc2ccc(Cl)cc2)cc1,0.03,0.04
Cc1cc(=O)n2nc(N3CCCC(C(=O)NCCCN4CC(C)CC(C)C4)C3)sc2n1 (stereo not given),0.49,1.6
Cc1c(O)ccc(NC(=O)/C=C/c2ccccc2)c1C,0.41,-0.1
CNC(=S)N1N=C(c2ccc(OC)cc2)CC1c1ccccc1Cl (stereo not given),0.29,-0.23
N=c1c(-c2nc3ccccc3[nH]2)cc(C(=O)c2cccs2)nn1-c1ccc(Cl)cc1,0.34,-0.61
O=C(/C=C/c1ccccc1Cl)NCc1ccco1,3.3,0.5
CCN(CC)CCN(C(=O)c1cc2ccccc2cc1OC)c1nc2ccc(F)cc2s1,0.05,-0.01
CC12CCC(c3c(CO)nn(-c4ccccc4)c31)C2(C)C (stereo not given),0.21,-0.7
CC12CCC(C(=O)Nc3cccc(Cl)c3)(C(Br)C1=O)C2(C)C (stereo not given),7*,-0.48*
CCNc1sc(C(=O)OCC)c(N)c1C#N,0.74,0.59
O=c1cc(-c2ccccc2)[nH]c2[nH]n(-c3ccccc3)c(=O)c12,0.84,-1.1
COCCNC(=O)C(=O)NCC1OCCN1S(=O)(=O)c1ccc2c(c1)OCCO2 (stereo not given),1.4,-1

Next section.
molecule,KCNQ2 pot,KCNQ2 pot baseline
CC1CCN(S(=O)(=O)c2cccc(S(=O)(=O)N3CCOCC3)c2)CC1,0.17,0.3
O=C(NCc1ccco1)C(c1ccccc1)N(Cc1ccccc1)C(=O)Cn1nnc2ccccc21 (stereo not given),0.81,-0.03
Cc1ccc2[nH]c(=O)cc(C(=O)OCC(=O)c3ccc(F)cc3)c2c1,0.48,-2
CC(=O)OC[C@H]1O[C@@H](O/N=C(\C)CCN2CCCCc3nc(C)c(C)cc32)[C@H](OC(C)=O)[C@@H](OC(C)=O)[C@@H]1OC(C)=O,0.09,-0.22
CCc1nc(SCC(=O)Nc2cc(C)on2)n[nH]1,0.42,0.45
O=C(Oc1cccc(C(=S)N2CCCCC2)c1)c1ccccc1,0.49,-0.17
Cc1ccc(-n2cc(CN3CCN(Cc4nccn4C)CC3)c(-c3ccc(F)cc3)n2)cc1,1.2,-0.11
CC(NC(=O)c1ccccc1Br)c1nnc(SCc2ccc([N+](=O)[O-])cc2)n1C (stereo not given),2.1,-0.18
Cc1cc(NC(=O)CCn2c(=O)sc3ccccc32)no1,0.78,-0.26
C=CCOC(=O)C1=C(C)NC(SCC(=O)Nc2ccc(C)c(Cl)c2)=C(C#N)C1c1ccco1 (stereo not given),0.18,0.72
CCn1cc(/C=C(\NC(=O)c2cc(OC)c(OC)c(OC)c2)C(=O)NCCN2CCOCC2)c2ccccc21,1.2,-0.68
Cc1cc(C)c2[nH]c(=O)c(CN(Cc3ccc4c(c3)OCO4)Cc3nnnn3C3CCCC3)cc2c1,0.05,0.2
CS(=O)Cc1cc(Sc2ccccc2)nc(-c2cccnc2)n1 (stereo not given),1.2,-1.1
Cn1ccc(C(=O)N2CCCc3ccccc32)n1,1.6,2.6
CC(CC(=O)Nc1cc([N+](=O)[O-])ccc1Cl)c1ccccc1 (stereo not given),0.97,-0.66
CCOc1cc(/C=N/NC(=O)c2ccc(NC(=O)C3CC3)cc2)ccc1O,0.03,1.8
COc1ccccc1C(=O)Nc1cc(C)on1,1.3,1.1
COC(=O)c1ccccc1NC(=O)CCCn1nc([N+](=O)[O-])c(Br)c1C,1.8,-1.9
COCCNC(=O)C(c1ccc(F)cc1)N(Cc1ccco1)C(=O)CCC(=O)Nc1nccs1 (stereo not given),1.1,-0.02
Cc1nn(-c2nc3ccccc3s2)c(N)c1-c1ccccc1,1.3,-0.02

Some of the entries so far, as labelled records.
> Cc1ccc(-n2cc(CN3CCN(Cc4nccn4C)CC3)c(-c3ccc(F)cc3)n2)cc1
  KCNQ2 pot: 1.2
  KCNQ2 pot baseline: -0.11
> CCc1nc(SCC(=O)Nc2cc(C)on2)n[nH]1
  KCNQ2 pot: 0.42
  KCNQ2 pot baseline: 0.45

Next results
molecule,KCNQ2 pot,KCNQ2 pot baseline
COc1cccc(C(=O)N2CCN(Cc3ccc(OC)cc3OC)CC2)c1,0.74,1.3
O=C(NCCOC(=O)C1COc2ccccc2O1)C1COc2ccccc2O1 (stereo not given),1.4,-2.4
O=C1c2ccccc2CN1CCSC(=S)N1CCOCC1,1.1,2.8
CCOC(=O)N1CCC(NC(=O)CSCc2nc(-c3sccc3C)oc2C)CC1,1.4,-1.4
Cc1c(C(=O)OCC(=O)N2CCC(C)CC2)oc2ccccc12,11*,0.67*
CNC(=O)C1(C)C=CC2(CCCCC2)N1C(=O)OC (stereo not given),0.09,-1.2
O=C(Cn1c(=O)oc2ccccc21)NCc1ccco1,2.2,-0.72
COc1ccc(-c2nc3ccccc3s2)cc1NC(C)=O,0.34,1.1
CCOc1ccc(/C=C/C(=O)Nc2ccc(OC)cc2[N+](=O)[O-])cc1,0.01,-0.89
O=C(COc1cccc(-n2cnnn2)c1)N1CCOCC1,2.1,-1.4
Cc1c(Cl)cccc1NC(=O)CCN1C(=O)C2CC=CCC2C1=O (stereo not given),0.17,-0.02
O=C1CCC(C(=O)N2CCSCC2)CN1Cc1ccc(Cl)cc1 (stereo not given),0.4,-1.4
O=C(c1ccc([N+](=O)[O-])c(CS(=O)(=O)c2ccc(Cl)cc2)c1)N1CCCCC1,0.32,0.6
Cc1cc(OCC(O)CNC(C)(C)C)ccc1Cl (stereo not given),1.4,0.02
COc1ccc2[nH]cc(CCNC(=O)Cc3c(F)cccc3Cl)c2c1,0.45,-1.5
O=C(OCC#CCSc1nc2ccccc2o1)c1ccco1,0.61,-0.58
Cn1c(=O)c2c(nc(N/N=C3\CCCc4ccccc43)n2Cc2ccc(F)cc2)n(C)c1=O,1.5,0.26
Cc1cc(C)cc(-n2nnnc2SCC(=O)Nc2cccc(NC(=O)c3ccco3)c2)c1,0.27,1.7
CN(C(=S)Nc1ccccc1)c1ccccc1,0.07,-0.03
N#Cc1c(-c2cccs2)cc(-c2cccnc2)nc1N,0.68,0.22

Later entries.
molecule,KCNQ2 pot,KCNQ2 pot baseline
CCNC(=S)N1CCN(S(=O)(=O)c2ccc(C)c(C)c2)CC1,0.49,2
Cc1cc(C)c(S(C)(=O)=O)c(Oc2ccccc2C)n1,0.19,0.26
O=c1c2cc(Br)ccc2nc(-c2ccccc2)n1O,7.8*,0.45*
CN(C)/C=C1\C(=O)N(c2ccc(Cl)cc2)CS1(=O)=O,0.63,1.8
Cc1ccc(-n2ncc(C#N)c2/N=C/N2CCOCC2)cc1,1.3,0.97
COc1cccc(NC(=O)COC(=O)c2c(-c3ccccc3)noc2C)c1,1.7,-1.5
O=C(O)CN1C(=O)Nc2ccc(Br)cc2C1c1ccccc1 (stereo not given),0.32,-0.05
O=C(CSc1nc(Nc2ccccc2)nc(N2CCOCC2)n1)Nc1ccc([N+](=O)[O-])cc1,0.67,-0.88
CC(C)(Oc1ccc(Cl)cc1)C(=O)Nc1ccc2oc(=O)ccc2c1,0.87,0.22
O=C(COc1ccccc1Br)c1ccc(O)cc1O,0.23,-1.1
Cc1ccc([N+](=O)[O-])cc1NC(=O)c1ccoc1C,0.37,-0.84
CC(C)CCSc1cc(NCCO)c([N+](=O)[O-])c2nonc12,0.97,-1.5
CCCNc1ncccc1C(N)=O,0.21,-1.1
C=C1CC2C=C(NC(C)=O)CC(C1)C2 (stereo not given),0.62,-1.5

Screening data (PubChem)
